HCMV UL50-53 inh: inhibitors of HCMV UL50-UL53 nuclear egress complex interaction | HTRF UL50-UL53 interaction, normalized percent inhibition | inhibition, % (no concentration beside the values) | 190,000 tested, 0.15% active | AID 1918969;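 active means both replicates at 50% or more, plus weaker picks with an unusually low signal ratio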;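 further: stock transfer was 100 nL into about 20 µL; 0% = negative control wells and 100% = wells with untagged competitor protein; inactives centre near -12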
* hit, by the source's call; & = joins results of further samples. These rows are one share of the data (hit frequency here may not be typical).

structure | HCMV UL50-53 inh
Nc1nc(SC/C=C/c2ccccc2)n[nH]1 | -7
CC1=NN(c2ccc(C(=O)O)cc2)C(=O)C1=Cc1ccc(-c2cc(C)c(C)cc2[N+](=O)[O-])o1 | -34
Nc1nc2[nH]cc(CCc3ccc(C(=O)N[C@@H](CCC(=O)O)C(=O)O)cc3)c2c(=O)[nH]1 | -66
COc1cc(/C=C/C(N)=O)cc(OC)c1OC | -65
O=C(Nc1nc(-c2ccccc2)ns1)N1CCN(C2CCCCC2)C(=O)C1 | -16
CC(=O)ON=C1C(=O)N(Cc2cc(Cl)ccc2Cl)c2ccc(Cl)cc21 | -15
CC(C)C(N)C(=O)OCCOCn1cnc2c(=O)[nH]c(N)nc21 (stereo not drawn) | -2&-67
COc1ccc(-c2nc(N)sc2C)cc1 | -5&-14
COc1ccc(CC(N)C(=O)NC2C(CO)OC(n3cnc4c(N(C)C)ncnc43)C2O)cc1 (stereo not drawn) | 1
CCCCN(C(=O)c1c(C)[nH]c(C(=O)OCC)c1C)c1ccccc1 | -14
N/C(=N\S(=O)(=O)c1ccc(Cl)s1)c1ccccc1 | 4&-14
CCOc1ccc(NC(=O)CSC2CCCCC2)cc1 | -13
O=C(Nc1ccc(-c2csc(Nc3cccc(C(F)(F)F)c3)n2)cc1)c1cc([N+](=O)[O-])cc(C(F)(F)F)c1 | 0
Cc1ccc(S(=O)(=O)Nc2cc(C)c3oc(=O)sc3c2)cc1 | -3
Cc1sc2sc(-c3ccccc3)c(N)[n+]2c1C | -41
N#CCOC(=O)/C=C\c1ccccc1 | -12
O=C(NCc1cccc(O)c1)Nc1nc(-c2ccncc2)cs1 | -7
CCOc1ccc(NC(=O)CN2C(=O)CSC(C)C2=O)cc1 (stereo not drawn) | 0
C[C@@H]1C[C@H]2O[C@@H]2/C=C\C=C\C(=O)Cc2c(Cl)c(O)cc(O)c2C(=O)O1 | -11&-11
C(=N/c1nccs1)/Nc1nccs1 | 1
O=c1cc(-c2ccccc2)c2cc(Br)ccc2[nH]1 | -13
CCOc1ccc(S(=O)(=O)NC)cc1 | 3
O=C1NC(=O)c2c1c(-c1ccccc1Cl)cc1[nH]c3ccc(O)cc3c21 | 11
CC(C)OC(=O)OCOP(=O)(COC(C)Cn1cnc2c(N)ncnc21)OCOC(=O)OC(C)C (stereo not drawn) | -12
CN1C(=O)S/C(=C/c2cccnc2)C1=O | -12
CCN(c1ncnc2nc[nH]c12)C1CCCCC1 | -11
CC(C)Sc1nc2c(c(=O)n1-c1ccc(F)cc1)SCC2 | -1
CCC(C(=O)Nc1c2c(nn1-c1ccc(F)cc1)CSC2)c1ccccc1 (stereo not drawn) | -3
O=C1/C(=C\c2cccs2)SC(=S)N1CC(=O)N(Cc1ccccc1)c1ccccc1 | 2&-17
Cc1csc(-c2cc(C(=O)NCCC3CCCN3C)cc(S(=O)(=O)N3CCOCC3)c2)c1 (stereo not drawn) | 6
COc1ccccc1NCC(O)COc1ccc(Cl)cc1Cl (stereo not drawn) | -6
CC1CCc2c(sc3ncnc(NCCN4CCOCC4)c23)C1 (stereo not drawn) | 3
CC(=O)Nc1ccc(N=CC2=C(O)CC(C)(C)CC2=O)cc1 | -11
O=S(=O)(NCCc1ccccn1)c1ccc2ccccc2c1 | -14
COc1ccc2cc(Br)ccc2c1CC(=O)O | -37
CC(=O)Oc1ccc(C(=O)Nc2cc(Cl)ccc2OC(C)=O)cc1 | 9
Oc1ccc(CN2CCOCC2)c2cccnc12 | -44
NC(=O)/C(=N\O)c1nc(-c2ccc(Cl)cc2)cs1 | -22
CCCCC[C@H](O)/C=C/[C@H]1[C@H](O)CC(=O)[C@@H]1C/C=C\CCCC(=O)Oc1ccc(NC(C)=O)cc1 | -24&-24
O=S(=O)(c1cccc2cnccc12)N1CCNCC1 | -10
CCn1ncc2[nH]c(-c3cc(F)ccc3-n3cccn3)nc21 | -3
COc1ccccc1C1CC(=O)NC(SCC(=O)N2CCCC2)=C1C#N (stereo not drawn) | -18
Cc1cccc2nc(CSC(=S)NCC3CCCO3)cn12 (stereo not drawn) | -18
N[C@@H](CO)c1ccccc1 | -29&-29
CCOC(=O)c1c(-c2ccccc2)oc2ccc(OC(C)C(=O)OC)cc12 (stereo not drawn) | 5
CCSc1nnc(NC(=O)CSC2=NCCS2)s1 | 9
C[C@H](N)C(=O)CCCCCC(=O)O | -24&-24
O=C(Nc1nc(-c2ccccn2)cs1)c1ccc(Br)s1 | -6
Cc1cc(NC(=O)Nc2ccc(N(C)C)cc2)c2cc(F)cc(F)c2n1 | 3&14
O=C(Nc1nc2ccc(Cl)cc2s1)C1CCCCC1 | -20

More entries follow.
structure | HCMV UL50-53 inh
CCCCC[C@H](O)/C=C/C1=C(C/C=C\CCCC(=O)O)C(=O)CC1 | -25&-25&-11
O=C(CSC1CCCCC1)N1CCCCC1 | 3&0
CC1SC(C)C(=O)N(CC(=O)NCc2ccco2)C1=O (stereo not drawn) | -6
CCCC/C=C\CCCCCCCC(=O)OC | -25&-25
OC(CCl)CN1CCN(c2cccc(C(F)(F)F)c2)CC1 (stereo not drawn) | -2
CCOC(=O)c1cc(C#N)c(Sc2ccccc2NC(=O)c2ccccc2)nc1C(F)(F)F | -12
CC1Oc2ccccc2C=C1/C=C(\NC(=O)c1ccccc1)C(=O)N1CCOCC1 (stereo not drawn) | -17
Cc1nc2ccccc2n1CC(=O)N1CC(=O)Nc2ccccc21 | -16
COc1ccc2cc(CC(=O)O)ccc2c1 | 4&4
CC(C)=Cc1ccc(O)cc1 | -4
CCN(CC)C(=O)c1ccc(Oc2ccc(C(=O)N(CC)CC)cc2)cc1 | -23
O=C(O)CCCCC1CCSS1 (stereo not drawn) | -17&-17
O=C(COc1ccc(C(=O)c2ccccc2)cc1)NC1CCN(Cc2ccccc2)CC1 | -11
COc1cc(O)cc(C2CC(=O)c3c(O)cc(OC4OC(CO)C(O)C(O)C4OC4OC(C)C(O)C(O)C4O)cc3O2)c1 (stereo not drawn) | -8
O=C(CSc1c(-c2ccccc2)[nH]c2ccccc12)N1CCCC1 | 6
COC(=O)CN1C(=O)N(CCc2ccccc2)C2(CCN(Cc3ccc4c(c3)OCCO4)CC2)C1=O | -6
CC1CCCC(C)N1CC(O)COCC1COc2ccccc2O1 (stereo not drawn) | -5
OCC(O)COc1ccc(Cl)cc1 (stereo not drawn) | -11
Cc1cc(Br)ccc1OCC(=O)N1CCc2ccccc21 | -6
CON=C(C(=O)N[C@@H]1C(=O)N2C(C(=O)O)=C(COC(N)=O)CS[C@H]12)c1ccco1 | -30
Cc1ccc(C(=O)Nc2ccc(-c3nnc4n3CCCCC4)cc2)cc1 | -10
COc1ccc(-c2csc(C(C#N)=C(SC)SC)n2)cc1 | -1
COc1ccc(S(=O)(=O)N2CCc3ccccc3C2)cc1OC | -11
COc1cccc(C(=O)N2CCC(n3cc(-c4ccccn4)nn3)CC2)c1 | -2
O=C1OC2(CCCCC2)OC1c1ccccc1 (stereo not drawn) | -10

Next section; the last six above are carried over.
structure | HCMV UL50-53 inh
CON=C(C(=O)N[C@@H]1C(=O)N2C(C(=O)O)=C(COC(N)=O)CS[C@H]12)c1ccco1 | -30
Cc1ccc(C(=O)Nc2ccc(-c3nnc4n3CCCCC4)cc2)cc1 | -10
COc1ccc(-c2csc(C(C#N)=C(SC)SC)n2)cc1 | -1
COc1ccc(S(=O)(=O)N2CCc3ccccc3C2)cc1OC | -11
COc1cccc(C(=O)N2CCC(n3cc(-c4ccccn4)nn3)CC2)c1 | -2
O=C1OC2(CCCCC2)OC1c1ccccc1 (stereo not drawn) | -10
O=Nc1c(O)n(Cc2ccccc2)c2ccccc12 | -48
COc1ccc(CCNC2CCc3c(c(C(=O)N(C)C)nn3CC3CCCCC3)C2)cc1 (stereo not drawn) | -6
c1ccc(CCN2CCN(CCc3ccccn3)CC2)nc1 | -15
Cc1nc2c(C#N)ncn2c(C)c1Cc1cccc(F)c1 | -15
CCOC(Cn1c(C)nc2ccccc21)OCC | -11
O=C(CN1C(=O)CSCC1=O)NCc1ccc(F)cc1 | -3
CCN(CC)C(=O)CN1C(=O)S/C(=C\c2ccccc2)C1=O | -29
CC(=O)Oc1ccc2c(=O)c(Oc3ccccc3)c(C)oc2c1 | -16
CC(C)(N)c1cn(C2CCN(c3nc(N)nc4nc[nH]c34)CC2)nn1 | 4&4
CC(CC(=O)N1CCOCC1)S(=O)(=O)c1ccc2c(c1)SCC(=O)N2 (stereo not drawn) | 3
c1ccc(OCc2cn3cccnc3n2)cc1 | -16
O=C(c1ccccc1-c1nn[nH]n1)N1CCc2[nH]cnc2C1c1ccccn1 (stereo not drawn) | -10
C=CC(=O)Nc1ccc(Nc2ccnc(Nc3ccc(N4CCN(C)CC4)cc3)n2)cc1 | 7
Cc1ccc(S(=O)(=O)N2CCCCC2)cc1C(=O)O | -2
CCC(=O)NC(C)c1nc2ccccc2[nH]1 (stereo not drawn) | -5
CSc1nc2ccc(NC(=O)C3=COCCO3)cc2s1 | 0
CCN(CC)CC(O)Cn1c2ccccc2c2ccccc21 (stereo not drawn) (tested in a mixture with another compound) | -6
CC(=O)[C@]1(O)Cc2c(O)c3c(c(O)c2C(OC2CC(N)C(O)C(C)O2)C1)C(=O)c1ccccc1C3=O (stereo partly drawn) | -218&-194
O=S(=O)(O)CCCSc1nc2ccccc2s1 | -22
COC(=O)CCS(=O)(=O)c1ccc(Cl)c(Cl)c1 | -10
CCN(CC)CCOc1ccc(C(=C(Cl)c2ccccc2)c2ccccc2)cc1 | 10&-30
O=S(=O)(O)CCCN1CCOCC1 | -16
Cc1csc(SCC(=O)N2CCc3c(cc(-c4csc5ccccc45)c(=O)n3C)C2)n1 | -27
CCCCCCCCCC(=O)OCC(CO)OC(=O)CCCCCCCCC (stereo not drawn) | 4
O=C1CCCc2occ(C(=O)N3CCc4[nH]nc(Cc5ccccc5)c4C3)c21 | -13&-13
Cc1cn(-c2cc(C(=O)Nc3ccc(C)c(NC(=O)C(=O)c4c[nH]c5ccccc45)c3)cc(C(F)(F)F)c2)cn1 | -16
CCOC(=O)Cc1csc(NC(=O)c2ccc3ncsc3c2)n1 | 16
Cc1ccc(S(=O)(=O)N2CCC(=O)CC2)cc1 | -7
COc1ccc2cc(CCNC(=O)c3ccco3)c(=O)[nH]c2c1 | -10
O=C(NNc1ccccc1)c1ccncc1 | 4
COC(=O)CN1C(=O)CSc2cc(S(=O)(=O)N3CCCC3)ccc21 | -2
CC[C@]1(O)C[C@@H]2CN(CCc3c([nH]c4ccccc34)[C@@](C(=O)OC)(c3cc4c(cc3OC)N(C=O)[C@@H]3[C@@]45CCN4CC=C[C@@](CC)(C(OC(C)=O)[C@]3(O)C(=O)OC)[C@H]45)C2)C1 (stereo partly drawn) | 13
CCCCCN=c1ccn(Cc2ccccc2)c2ccccc12 | -11
CCc1cc2c(=O)c(-c3nc(C)cs3)coc2cc1OC(C)C(=O)O (stereo not drawn) | -2
Cn1c(C(Cc2ccccc2)NC(=O)C(C)(C)C)nc2ccccc21 (stereo not drawn) | -6
O=C(CSc1ncnc2ccccc12)Nc1nccs1 | 2
CC1Cc2ccccc2N1c1ncnc2nc[nH]c12 (stereo not drawn) | 10
Cc1ccsc1/C=C/C(=O)O | -39
CC(C)COc1cccc(OCC(=O)Nc2cccc(Cl)c2)c1 | -4
CN(C)C(=O)c1nn(Cc2ccccc2)c2c1CN(C(=O)C1CC(=O)Nc3ccccc31)CC2 (stereo not drawn) | -6
O=c1cc(N2CCOCC2)oc2c1ccc1ccccc12 | -20&6
CC1CNc2c(cccc2S(=O)(=O)NC(CCCN=C(N)N)C(=O)N2CCC(C)CC2C(=O)O)C1 (stereo not drawn) | -55
Cc1nc2ccccc2n1CCc1ccccc1 | -16
CC(=O)Nc1nnc(SCc2cccc(F)c2)s1 | 5
CCC(=O)Nc1nnc(SCC(=O)Nc2ccccc2)s1 | 3&-24
N#Cc1ccc(-c2csc(NC(=O)/C=C/c3cccs3)n2)cc1 | -25
CCn1ncc(NC(=O)Cn2cc(-c3cccc(-n4cccn4)c3)cn2)n1 | -24&-24
NS(=O)(=O)c1ccc2nc(NC(=O)c3cccc(C(F)(F)F)c3)sc2c1 | -16
Cc1ccc(O)c(C(N)(C(F)(F)F)C(F)(F)F)c1 | -4
O=C(Nc1nc2ccc(S(=O)(=O)N3CCCC3)cc2s1)c1ccccc1 | 2
Cc1ccc(-c2c(-c3nn(C)c4ncnc(N5CCC(N6CCCCC6)C5)c34)cnn2C)cc1 (stereo not drawn) | -2
CCCCCCCCCCCCCCC(=O)N[C@H]1CCOC1=O | -11&-11
CCOC(=O)N1CCN(CC(O)COC2C3(C)CCC(C3)C2(C)C)CC1 (stereo not drawn) | -17

Among those listed so far, these have a thiophene ring, fused or not:
structure | HCMV UL50-53 inh
N/C(=N\S(=O)(=O)c1ccc(Cl)s1)c1ccccc1 | 4&-14
O=C1/C(=C\c2cccs2)SC(=S)N1CC(=O)N(Cc1ccccc1)c1ccccc1 | 2&-17
Cc1csc(-c2cc(C(=O)NCCC3CCCN3C)cc(S(=O)(=O)N3CCOCC3)c2)c1 (stereo not drawn) | 6
CC1CCc2c(sc3ncnc(NCCN4CCOCC4)c23)C1 (stereo not drawn) | 3
O=C(Nc1nc(-c2ccccn2)cs1)c1ccc(Br)s1 | -6
Cc1csc(SCC(=O)N2CCc3c(cc(-c4csc5ccccc45)c(=O)n3C)C2)n1 | -27
Cc1ccsc1/C=C/C(=O)O | -39
N#Cc1ccc(-c2csc(NC(=O)/C=C/c3cccs3)n2)cc1 | -25

Screening results deposited in PubChem BioAssay by ICCB-Longwood Screening Facility, Harvard Medical School.
